TRPML1 agonist – human mucolipin-1 channel agonism; TRPML1-expressing cells, Ca2+ dye fluorescence, FDSS; host cell line not named in the record; reference of the full effect not given here; activation, % (concentration not given with the values); 410,000 tested, 0.12% active; AID 624414; in the data active = activation above about 50%; inconclusive = about 30% to 50%; inactive = below about 30%; also: 0% is about no effect; the text of the record puts the active cut at 80%
Target sequence (Q9GZU1 whole entry, looked up): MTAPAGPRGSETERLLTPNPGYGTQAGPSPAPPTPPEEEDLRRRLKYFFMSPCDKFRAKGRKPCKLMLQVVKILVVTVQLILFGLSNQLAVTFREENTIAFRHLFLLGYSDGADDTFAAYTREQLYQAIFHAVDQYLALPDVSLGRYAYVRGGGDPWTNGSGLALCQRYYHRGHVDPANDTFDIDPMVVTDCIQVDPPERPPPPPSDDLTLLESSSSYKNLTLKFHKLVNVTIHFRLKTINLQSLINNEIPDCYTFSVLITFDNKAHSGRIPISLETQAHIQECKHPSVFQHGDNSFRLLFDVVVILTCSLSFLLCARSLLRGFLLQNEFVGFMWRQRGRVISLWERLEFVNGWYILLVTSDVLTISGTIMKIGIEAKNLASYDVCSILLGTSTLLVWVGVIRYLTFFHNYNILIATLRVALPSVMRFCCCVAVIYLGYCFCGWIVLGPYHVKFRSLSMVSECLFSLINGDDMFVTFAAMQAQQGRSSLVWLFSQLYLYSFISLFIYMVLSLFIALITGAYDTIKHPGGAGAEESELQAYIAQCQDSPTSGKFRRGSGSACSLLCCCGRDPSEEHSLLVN
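Kinetic FDSS Ca2+ read in Tet-induced TRPML1-DL cells (ABD Ca8 dye plus quencher, 45-90 min RT loading): baseline, then compound, then 110 s agonist window; EC80 agonist 54-4 at 4uM final added afterwards for a 110 s antagonist window.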
ClpP mod – qHTS Assay for Activators of ClpP; ATP-dependent Clp protease proteolytic subunit (Bacillus subtilis (strain 168)), P80244; AID 651965, 2013; 340,000 tested, 1.9% active; purified B. subtilis ClpP, FRET peptide cleavage, 20 min; Potency, µM (highest dose often 57.5 µM), without a hit: at the highest dose activity change, negative = active; active = well fitted falling curve with a large enough effect; inconclusive = small, poorly fitted or top-dose-only effect; inactive = no such curve, though single readings can be large or run the other way; also: potency is read from the fitted curve at half-maximal effect; the source files actives as falling curves though it sought activators and does not explain the sign; nearly all actives have a fitted effect of over 65% in size; many hits overshoot -100%
Target sequence (P80244 whole entry, looked up): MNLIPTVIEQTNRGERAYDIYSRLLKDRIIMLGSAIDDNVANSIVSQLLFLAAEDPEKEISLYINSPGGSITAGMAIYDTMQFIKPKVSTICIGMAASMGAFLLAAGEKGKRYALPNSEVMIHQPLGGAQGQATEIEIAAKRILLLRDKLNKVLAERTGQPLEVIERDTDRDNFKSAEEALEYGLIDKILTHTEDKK
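Buffer: 100 mM Tris/HCl pH8, 100 mM KCl, 0.05% low protease BSA, 2.5% glycerol, 0.01% Tween-20. ClpP 10 microg/mL final; 20 min RT; delta FRET normalized to ADEP and DMSO controls.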
* marks the source's active call; other numbers are inactive results; ? = inconclusive.

SMILES	TRPML1 agonist	ClpP mod
O=C1Nc2ccccc2N(C(=O)c2c(F)cccc2F)C1c1nc2ccccc2[nH]1 (stereo not given)	-0.6	-10.9%
COc1ccc(CN2C(=O)CCC2(C)c2nc3ccccc3[nH]2)cc1 (stereo not given)	-0.8	-0.4%
O=C(Nc1ccc(F)c(Cl)c1)c1ccc2sc([C@@H]3O[C@H](CO)[C@H](O)[C@H](O)[C@H]3O)nc2c1	-0.2	1.8%
CCC1(C)NC(c2ccc3c(c2)OCO3)=CC(c2ccccc2O)N1 (stereo not given)	-0.2	-13.4%
Cc1ccc(S(=O)(=O)N2CCN(c3nc(-n4cncn4)nc4ccccc34)CC2)cc1	-0.6	4.0%
CCCCN(C=O)c1c(CC)nc2ccc(C(=O)N(C)Cc3ccccc3)cn12	-1.0	?
C=C(c1ccc2ccccc2n1)c1cccs1	-0.4	-0.1%
CN1CCN(C(=O)c2ccc(-c3cnc4cccnn34)cc2)CC1	-0.1	4.1%
O=C(Nc1ccncc1)c1cnn2c1NC(=C1CC1)C=C2C(F)F	-0.8	-13.1%
O=C(CC[C@H]1O[C@@H](n2cnc3c(NC(=O)c4ccccc4)ncnc32)[C@H](O)[C@@H]1O)NCC1CCN(Cc2ccccc2)CC1	-0.1	-1.0%
COc1cc(F)ccc1-c1cc(C(=O)Nc2ccc(C)c(NS(C)(=O)=O)c2)[nH]n1	-0.5	116.6%
c1ccc2c(CCc3c[nH]c4ccccc34)ccnc2c1	17.7	-6.8%
C(=C\c1ccccc1)/CN1CCN(C(c2nnnn2C2CCCCC2)C2CC2)CC1 (stereo not given)	-0.3	-0.6%
CC(C)C[C@@H](COCc1ccc([N+](=O)[O-])cc1)N1CCN(C(=O)c2ccc(C(F)(F)F)cc2)CCC1=O	-0.6	-0.6%
COCCNC(=O)C1CCCN(C(=O)/C=C/c2ccccc2)CC1 (stereo not given)	-0.4	-2.2%
Cc1ccccc1OC(C)C(=O)NCCNC(=O)C(C)Oc1ccccc1C (stereo not given)	0.3	-0.5%
c1ccc(-c2nc(SCC3CCCCO3)n[nH]2)cc1 (stereo not given)	-0.9	-10.0%
CCNC(=O)C1CCCN(Cc2ccc3ccccc3c2Br)CC1 (stereo not given)	-0.4	-0.6%
Cc1ccc2nc(C3CCCCC3)c(Cc3ccccc3C(F)(F)F)n2c1	-0.5	5.4%
CN1CCCC(C)(C(=O)Nc2cccc(Oc3ccccc3)c2)C1 (stereo not given)	-0.3	-3.2%
CCOC(=O)c1ccc(S(=O)(=O)N2CCN(c3nc(-c4ccccc4)nc4ccccc34)CC2)cc1	-0.7	-1.4%
Cc1ccc(C)c(CC(=O)N2CCCC(c3cc(C(=O)Nc4ccc5c(c4)OCO5)no3)C2)c1 (stereo not given)	-0.7	-5.1%
CNc1cncc(-c2cc(OC)c(OC)c(OC)c2)n1	-0.7	5.1%
Cc1nc2ccc(NC(=O)C3(C)CCCN(C(C)C)C3)cc2o1 (stereo not given)	-0.3	-2.3%

Reformatted as labelled records: part of the list above.
Cc1ccc(C)c(CC(=O)N2CCCC(c3cc(C(=O)Nc4ccc5c(c4)OCO5)no3)C2)c1 (stereo not given)
  TRPML1 agonist = -0.7
  ClpP mod = -5.1%
Cc1ccccc1OC(C)C(=O)NCCNC(=O)C(C)Oc1ccccc1C (stereo not given)
  TRPML1 agonist = 0.3
  ClpP mod = -0.5%

The list goes on.
SMILES	TRPML1 agonist	ClpP mod
O=C(C[n+]1cccc(Br)c1)c1ccc2c(c1)CCCC2	-0.6	-0.2%
O=C(c1[nH]c(C(F)(F)F)nc1-c1ccccc1)N1CCN(c2cccc(C(F)(F)F)n2)CC1	-0.5	4.8%
CCOC(=O)[C@]12CCC=C1N(Cc1cccc3ccccc13)C(=O)[C@H](CC(=O)NCc1cccs1)C2	-0.7	-15.3%
O=C(C[N+]12CCCc3cccc(c31)CCC2)c1ccc2ccc3cccc4ccc1c2c34	2.7	4.1%
CC1(Cc2ccc(F)cc2)C(=O)Nc2ccc(-c3cccnc3)cc21 (stereo not given)	-0.9	-0.2%
O=S1(=O)CCOC[C@H](c2ccccc2)N1Cc1ccc(F)cc1	0.1	1.2%
Cc1ccccc1CN1[C@H]2CCCC[C@@H]2OCCS1(=O)=O	-1.0	-2.6%
O=C(Nc1ccccc1)c1cc(C2CCCN(C(=O)C3CC3)C2)on1 (stereo not given)	-0.3	2.0%
O=C1NC[C@H](CCCCN2C[C@H](Cc3ccccc3)N(Cc3ccccc3)C(=O)C2=O)N(CCC2CCCCC2)C1=O	-1.1	1.6%
O=[N+]([O-])c1ccccc1S(=O)c1ccccc1[N+](=O)[O-]	-0.7	-1.6%
O=C(Nc1cccc(C(F)(F)F)c1)C1Cc2c(-c3ccco3)ccnc2O1 (stereo not given)	-1.0	-8.9%
OC[C@@H]1CN(Cc2ccc(F)cc2)C[C@H](n2cnc3c(NCc4ccco4)ncnc32)O1	0.1	0.7%
CCNC(=O)C1(C)CCN(C(=O)c2ccc(C)c(F)c2)C1 (stereo not given)	-0.6	-0.9%
O=C1NC[C@H](CCCCN2CCN(CCc3ccc(O)cc3)C(=O)C2=O)N(CCC2CCCCC2)C1=O	-0.7	-0.4%
COC(=O)c1ccc(Cn2c(C)c(C(=O)NCc3ccco3)sc2=O)o1	-0.9	-23.4%
CCOc1cc2ccccc2cc1C(=O)OCC(=O)Nc1ccc(Br)cc1	-0.8	4.3%
COC(=O)[C@]12CCCCC=C1N(Cc1ccco1)C(=O)[C@H](CC(=O)N1CCSCC1)C2	-1.0	-0.8%
Cc1ccc2ncnc(NCc3ccco3)c2c1	-0.1	-5.1%
CCc1cc(/C=C/c2ccnc3ccccc23)ccc1N(C)C	22.1	-0.8%
COCCCN1C(=O)C(CC(=O)NC2CC2)CC(C(=O)N2CCOCC2)=C1C (stereo not given)	-0.3	1.6%
COc1ccc(OC)c(/C=C/c2ccc3ccccc3n2)c1	-1.0	3.7%
Cc1ccc(F)c(S(=O)(=O)NC(=O)C2(C)CCN2C(=O)Cc2ccc(-c3ccccc3)cc2)c1 (stereo not given)	-1.0	1.3%
C[C@H](NC(=O)[C@@H]1CCCN1C(=O)[C@@H]1CCCN1C(=O)c1cccc2ccccc12)c1ccccc1	-1.0	1.6%
O=C(NCc1ccccc1)c1cc(C2CCCCN2C(=O)CCc2ccccc2)on1 (stereo not given)	-0.6	1.6%
COC[C@H]1CCCN1c1ccc2c(c1)O[C@H](COCc1ccccc1)CN([C@H](C)c1ccccc1)S2(=O)=O	-0.3	-24.5%
Oc1c(C(Nc2cccnc2)c2ccccc2F)ccc2cccnc12 (stereo not given)	-1.0	4.4%
CC1=C(C(=O)N2CCCCCC2)CC(CC(=O)NCCc2ccccn2)C(=O)N1Cc1ccc(C(C)(C)C)cc1 (stereo not given)	0.0	-0.2%
CC1(C(=O)NS(=O)(=O)Cc2cccc(Cl)c2)CCN1C(=O)c1ccc(C2CCCCC2)cc1 (stereo not given)	-0.5	-2.3%
CC(=O)Nc1ccc(-c2ccnc3c2CC(C)(C(=O)NCCc2ccccc2)O3)cc1 (stereo not given)	-1.0	4.3%
CN(C)c1ccc(/C=C/c2sc3ccccc3[n+]2CCCCBr)cc1	7.0	0.0%
O=C(NCCN1CCC(n2c(=O)[nH]c3ccccc32)CC1)c1ccc(Cl)cc1	-0.9	0.5%
O=C(Nc1nnc([C@H]2C[C@H](O)[C@@H](CO)O2)s1)Nc1ccccc1F	-0.1	-5.5%
COC(=O)CCCn1cc(CN2CC(N3CCCCC3)CS2(=O)=O)nn1 (stereo not given)	-0.1	3.5%
CC1(C)CC(NCc2ccccc2)=CC(=S)N1	0.8	-0.3%
O=C(NC(c1ccc(Cl)cc1)c1ccccn1)C1CCN(CCOc2ccc(Cl)cc2Cl)CC1 (stereo not given)	2.2	-3.6%
COC(=O)CCCC[C@@H]1O[C@H](CCc2ccccc2)CC2=C1C(=O)OC(C)(C)O2	-0.5	2.4%
CC1(C(=O)Nc2cccc(C(F)(F)F)c2)Cc2c(-c3cccc(C(N)=O)c3)ccnc2O1 (stereo not given)	-0.2	-5.2%
CNc1cccc(-c2cc(OC)c(OC)c(OC)c2)n1	-1.0	5.0%
COCCNc1nc(NCCOc2ccccc2Cl)c2sc(-c3ccccc3)cc2n1	-0.4	-26.8%
COc1ccc(C(c2nnnn2-c2ccc(OC)cc2)N2CCN(C/C=C/c3ccccc3)CC2)cc1 (stereo not given)	-0.3	-4.2%
NS(=O)(=O)c1ccc(NC(=S)Nc2ccc(S(=O)(=O)Nc3nccs3)cc2)cc1	-0.4	-0.6%
CC(C)NC(=O)C1(C)CCN1Cc1ccc(C(F)(F)F)cc1 (stereo not given)	-0.9	-1.5%
COc1cc(F)ccc1-c1cc(C(=O)NCc2ccc(C(F)(F)F)cc2)[nH]n1	2.5	-0.1%
CCOC(=O)[C@]12CCCC=C1N(Cc1ccc(Cl)cc1Cl)C(=O)[C@H](CC(=O)NCc1cccs1)C2	-0.4	-4.6%
CC[n+]1cccc(Br)c1	-0.4	-0.6%
Cn1nc(C(C)(C)C)cc1C(=O)N1CCCCC1c1cc(C(=O)Nc2ccccc2)no1 (stereo not given)	-0.3	-3.1%
Cc1cc(Br)cn2c(Cc3cccc(Cl)c3)c(-c3cccc(Cl)c3)nc12	0.8	-9.1%
CC1=C/C(=C\c2ccc(N(C)C)cc2)c2ccccc21	0.0	1.6%
CCCCC(=O)N(C)c1c(C)nc2ccc(C(=O)N3CCN(C(C)=O)CC3)cn12	-0.5	-2.8%
COc1cccc(C(N)c2nc(-c3cc(F)cc(F)c3)cs2)c1 (stereo not given)	-0.5	0.8%
Cc1ccsc1C(=O)N1CCC1(C)C(=O)NS(=O)(=O)c1cccc(F)c1 (stereo not given)	-0.2	-0.1%
CC(C)(C)CC(C)(C)N=C1Nc2ccc(Cl)cc2NC12C[C@H]1CCC(=O)N3CC[C@@H](C2)[C@@H]13 (stereo not given in full)	-0.6	2.2%
OCc1cccc(-c2csc(C(O)c3ccco3)n2)c1 (stereo not given)	-0.3	-3.0%
CCc1nc2c(OCC(=O)C(C)(C)C)cccn2c1N(C)C(=O)Nc1ccccc1OC	-0.5	-6.4%
O=C(NCc1cccc(C(F)(F)F)c1)c1c[nH]c(=O)s1	-0.5	2.2%
CCOC(=O)[C@]12CCC=C1N(Cc1ccc(Cl)cc1Cl)C(=O)[C@H](CC(=O)N1CCOCC1)C2	0.6	3.1%
CCc1ccccc1Oc1nc(NCc2ccccc2)nc2ccsc12	1.9	?
CCCCN1CC(N2CCN(CCN(C)C)CC2)CS1(=O)=O (stereo not given)	-0.5	-1.1%
COc1cccc(NC(=O)C2(C)CCN2Cc2ccccc2OC(F)F)c1 (stereo not given)	-0.2	-2.3%
COc1ccc(CN2C(=O)C(CC(=O)NC3CC3)CC(C(=O)N3CCOCC3)=C2C)cc1 (stereo not given)	-0.6	1.0%
Further results
SMILES	TRPML1 agonist	ClpP mod
CC1(C(=O)NS(=O)(=O)c2ccc(Br)cc2)CCN1C(=O)c1cccc(F)c1 (stereo not given)	-0.2	-0.4%
O=C1C=C(O)CC2(CCCCC2)C1	-0.4	2.1%
COc1ccc(S(=O)(=O)NC(=O)C2(C)CCN2C(=O)C2(c3ccccc3)CCCC2)cc1 (stereo not given)	-0.8	0.2%
O=S1(=O)CCO[C@H]2CCCC[C@@H]2N1Cc1cccc(F)c1	-1.3	1.4%
CCCCNC(=O)C1c2ccccc2OCC(=O)N1Cc1ccccc1 (stereo not given)	-0.3	2.1%
NC(N)=Nc1ccc(/C=C2\C=Cc3ccccc32)cc1	-0.6	-1.7%
CCCC(=O)N1CCC1(C)C(=O)Nc1ccc(OC)c(OC)c1 (stereo not given)	-0.5	0.8%
CC1(C(=O)NS(=O)(=O)c2cccs2)CCN1C(=O)c1ccccc1CCc1ccccc1 (stereo not given)	1.0	1.9%
O=C(Nc1ccc(Cl)cc1)C1Cc2c(-c3ccccc3Oc3ccccc3)ccnc2O1 (stereo not given)	-0.4	-7.3%
NC(COCc1ccccc1)c1csc(NC(=O)Nc2cccc(Cl)c2)n1 (stereo not given)	2.2	1.7%
Fc1cccc(Cc2c(-c3ccccc3)nc3c4ccccc4ccn23)c1	0.5	4.8%
COCCNC(=S)N1CCC2CC1c1cc(-c3ccc4c(c3)OCO4)ccc12 (stereo not given)	-0.3	-2.7%
O=C(O)C1CCCCN1c1ccccc1[N+](=O)[O-] (stereo not given)	-0.7	2.4%

In another format: entries from further up
Each structure is followed by: TRPML1 agonist | ClpP mod
CCc1nc2c(OCC(=O)C(C)(C)C)cccn2c1N(C)C(=O)Nc1ccccc1OC
  -0.5 | -6.4%
O=C(NCc1cccc(C(F)(F)F)c1)c1c[nH]c(=O)s1
  -0.5 | 2.2%
CCOC(=O)[C@]12CCC=C1N(Cc1ccc(Cl)cc1Cl)C(=O)[C@H](CC(=O)N1CCOCC1)C2
  0.6 | 3.1%
CCc1ccccc1Oc1nc(NCc2ccccc2)nc2ccsc12
  1.9 | ?
CCCCN1CC(N2CCN(CCN(C)C)CC2)CS1(=O)=O (stereo not given)
  -0.5 | -1.1%
COc1cccc(NC(=O)C2(C)CCN2Cc2ccccc2OC(F)F)c1 (stereo not given)
  -0.2 | -2.3%
COc1ccc(CN2C(=O)C(CC(=O)NC3CC3)CC(C(=O)N3CCOCC3)=C2C)cc1 (stereo not given)
  -0.6 | 1.0%

Compound activity (PubChem)

Some of the compounds tested; count on the stated rates, not on these rows.
